PABP FP inh: blocks human PABP binding to poly(A) RNA; inhibition, % at 35 µM; fluorescence polarization; P11940; AID 2014; 1% of 290,000 active;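 active means 50% or more with normal probe brightness, or confirmed in later tests; inconclusive means above 50% with abnormal brightness, or retests that disagree; inactive means below 50% or failed in later tests; about a fifth of its hits are not listed in these tables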;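 further: calls also rest on retests at 20 µM and on dose response follow-up; controls were probe without protein and protein plus probe with vehicle; some compounds called inactive have numbers as strong as hits; many hits fall short of the cut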
Rce1 inhib: yeast Ras-converting enzyme inhibition. 0.27% of 290,000 active. yeast membranes, quenched prenylated peptide cleavage fluorescence. calls only. Q03530;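 active means fall in fluorescence gain of 50% or more versus controls, with final raw signal at or below 3038400; inconclusive means same 50% fall but final raw signal above 3038400; inactive means fall in fluorescence gain under 50%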;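 further: plate controls were neutral control wells for no effect and wells lacking membranes for full effect; tested at 10 µM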
Target sequence (Q03530 whole entry, looked up): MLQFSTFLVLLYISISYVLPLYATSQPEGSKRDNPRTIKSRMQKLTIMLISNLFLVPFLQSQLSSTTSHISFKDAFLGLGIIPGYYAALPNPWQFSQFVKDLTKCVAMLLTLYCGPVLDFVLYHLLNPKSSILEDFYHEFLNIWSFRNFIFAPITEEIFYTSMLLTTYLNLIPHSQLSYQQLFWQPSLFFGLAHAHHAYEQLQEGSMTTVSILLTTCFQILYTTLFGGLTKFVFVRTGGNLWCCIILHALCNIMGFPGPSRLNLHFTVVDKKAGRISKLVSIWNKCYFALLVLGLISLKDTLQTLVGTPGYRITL
Env fusion inh: HIV envelope-mediated fusion inhibition; inhibition, % at 12.3 µM; HeLa-JRFL Env/CEM21 cell fusion, luciferase; 1.1% of 360,000 active;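 active means mean replicate inhibition score of at least 50 and every replicate individually at or above 50; inconclusive means only one of the two criteria met; inactive means mean below 50 and not all replicates reaching 50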;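 further: 0% = plate neutral controls and 100% = maraviroc near 300 nM; one replicate is shown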
UUG fidelity: yeast start codon fidelity modulation; S. cerevisiae UUG-firefly luciferase reporter, luminescence/redox ratio; activity score, % at 18.7 µM; 0.13% of 350,000 active;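 active means replicate mean at a twofold rise or more, about +100% in these data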;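 further: firefly luciferase made from a UUG start codon reports start codon fidelity; reporter light over untreated wells divided by growth signal over untreated wells; some hits fall short of that in this replicate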
eIF4H inh: inhibitors of RNA binding by human eIF4H; Q15056; eIF4H fluorescence polarization binding assay; 0.94% of 290,000 active; AID 2012; inhibition, % at 35 µM;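 active means 50% or more with normal probe brightness, or confirmed in later tests; inconclusive means above 50% with abnormal brightness, or retests that disagree; inactive means below 50% or failed in later tests; about a fifth of its hits are not listed in these tables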;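 further: calls also rest on retests at 20 µM and on dose response follow-up; 0% = protein and probe with vehicle and 100% = probe without protein; strong numbers were not always called active; many hits fall short of the cut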
CSC inhib: blocks cancer stem cells; 1.1% of 300,000 active; AID 2717; cancer stem cell-like cells viability, luminescence; inhibition, % at 7.5 µM;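 active means mean at 75% or more and at least half the replicates too; inconclusive means mean and replicates disagree; tested in HMLE shEcad cells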;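 further: 0% = median of negative and 100% = median of positive control wells; the first replicate is given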
MT1-MMP act inh: blocks activation of human MT1-MMP. P50281. HT1080 RFP-PRO-GFP cells, GFP/RFP ratio fluorescence, overnight; percent of plate control window, DMSO zero. GFP/RFP ratio change, % at 20 µM. 0.061% of 360,000 active;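 active means GFP/RFP ratio change of at least 30% with cell ATP level not reduced by more than half and red fluorescence within 50% of control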; further: strong numbers were not always called active
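Test system: HT1080 cells expressing an RFP-PRO-GFP fluorescent reporter construct / Compound dosing: single-point 20 µM compound, 1% DMSO / Schedule: cells overnight before dosing, compound overnight, 37 °C, 5% CO2 / Evaluation: GFP/RFP fluorescence ratio / Control set: DMSO and RFP-L50D-GFP cell wells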
PABP FP inh retest: recorded beside PABP FP inh, whose call it bears; inhibition, %; compound at 20 µM; confirmation repeats;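 mean of two retest wells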
MT1-MMP act inh RFP: recorded beside MT1-MMP act inh, whose call it bears; RFP signal change, %; measured here: RFP expression control read;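 0 = vehicle wells; hits needed this value within 50% of zero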
* hit, by the source's call; i = inactive; ? = inconclusive; . = no result given. An excerpt (hit frequency here may not be typical).

SMILES | PABP FP inh | Rce1 inhib | Env fusion inh | UUG fidelity | eIF4H inh | CSC inhib | MT1-MMP act inh | MT1-MMP act inh RFP | others
FC(F)(F)c1nc(-c2ccccc2)ncc1-c1nnnn1-c1ccccc1 | 8 | i | 3 | -16 | -2 | 6 | 1 | -15
Cc1cc(C)nc(SCc2nnc(SCC(=O)NCc3ccco3)n2-c2ccccc2)n1 | 0 | i | -11 | 2 | -7 | 2 | -2 | 6
Cc1ccc(/C=C2\SC(=S)N(CCCC(=O)Nc3ccccn3)C2=O)cc1 | -2 | i | . | . | -5 | 8 | 6 | 1
CCOC(=O)Cc1csc(NC(=O)C(C)(C)C)n1 | -1 | i | -41 | -26 | -10 | -14 | -2 | -1
O=C1CC(C(=O)Nc2ccc(Cl)cc2[N+](=O)[O-])C2(CCCCC2)O1 (stereo not drawn) | -4 | i | 3 | . | 0 | -18 | 2 | 0
O=C(NCc1ccncc1)C(=O)Nc1nc(C23CC4CC(CC(C4)C2)C3)cs1 | 4 | i | . | . | 13 | -5 | -11 | -23
CCc1nc2ccc(C(=O)NCCOc3ccc(OC)cc3)cn2c1N(C)Cc1cccs1 | . | . | -6 | -4 | . | . | -5 | -8
CCOC(=O)CCc1c(C)c2ccc3c(c2oc1=O)CN(CCCO)CO3 | -8 | i | -38 | -3 | 1 | 13 | 0 | 2
N#CC(=Cc1ccc(O)cc1)C(N)=C(C#N)C#N | . | . | 7 | -41 | . | -7 | -3 | 7
Cc1c(NC(=O)CSc2ncn[nH]2)c(=O)n(-c2ccccc2)n1C | -3 | . | . | -9 | -2 | -8 | 6 | 7
Cc1ccccc1NC(=O)c1sc(Cl)nc1C | 13 | i | 16 | . | 0 | -15 | 4 | 1
COCCNC(=O)CN(C)S(=O)(=O)c1ccc(Br)cc1 | 4 | i | -1 | -10 | -7 | -5 | 0 | 4
COc1cc(C)c2sc3ccccc3c(=O)c2c1NCCN(C)C | . | . | -58 | -2 | . | . | 6 | -2
CCn1cc(C(=O)NC(=S)Nc2sc3c(c2C(=O)OC)CCCCCC3)cn1 | -2 | i | 7 | 13 | 2 | -7 | 2 | 7
CCOC(=O)N1CCC(NC(=O)C2CCCN(S(=O)(=O)c3cccnc3)C2)CC1 (stereo not drawn) | 0 | i | -20 | -21 | -12 | -8 | 0 | 1
O=C(CN1C(=O)COCC1=O)N1CCOCC1 | 6 | i | -47 | -16 | -4 | -8 | -1 | 12
O=C(Nc1ccccc1)Nc1nnc(Cc2ccc(F)cc2)s1 | 5 | i | -5 | -5 | -1 | 42 | 2 | -1
COC(=O)c1cc(-c2ccc(OC)cc2)nc2nc(SC)[nH]c(=O)c12 | 6 | i | 22 | -2 | 0 | -12 | 2 | 4
CCOC(=O)c1ccc(S(=O)(=O)Nc2cc(C(C)(C)C)no2)cc1 | 4 | i | 6 | -7 | 5 | -12 | -1 | 2
CN(CCOc1ccccc1)CC(O)COCc1ccccc1F (stereo not drawn) | 6 | i | 1 | -8 | -7 | -3 | 6 | 5
CN1CCN(C(=O)c2cnn3c(C(F)(F)F)cc(-c4ccc5c(c4)OCO5)nc23)CC1 | -8 | i | 5 | 1 | -3 | -11 | 1 | -4
Cc1ccc(OCC(=O)OCC(=O)Nc2sccc2C(N)=O)cc1C | 60 | i | -3 | . | ? | -10 | 3 | 5 | PABP FP inh retest=46
CNC(=O)CSc1nc(-c2ccccc2)c(-c2ccccc2)o1 | -1 | i | 3 | 31 | -10 | . | -6 | -5
CSc1cccc(CN2CCC(CO)(Cc3cccc(C(F)(F)F)c3)CC2)c1 | -4 | i | 3 | . | 0 | 31 | 3 | 2
Cc1nc(NC(=S)NC(=O)c2cccs2)sc1C(=O)N(C)C | 7 | i | . | -29 | -3 | -2 | -2 | 1

The closing three compounds of the part above come first, to join the parts:
SMILES | PABP FP inh | Rce1 inhib | Env fusion inh | UUG fidelity | eIF4H inh | CSC inhib | MT1-MMP act inh | MT1-MMP act inh RFP | others
CNC(=O)CSc1nc(-c2ccccc2)c(-c2ccccc2)o1 | -1 | i | 3 | 31 | -10 | . | -6 | -5
CSc1cccc(CN2CCC(CO)(Cc3cccc(C(F)(F)F)c3)CC2)c1 | -4 | i | 3 | . | 0 | 31 | 3 | 2
Cc1nc(NC(=S)NC(=O)c2cccs2)sc1C(=O)N(C)C | 7 | i | . | -29 | -3 | -2 | -2 | 1
CC(=O)Nc1ccc(NC(=O)COc2ccc([N+](=O)[O-])cc2)cc1 | -13 | i | -3 | . | 4 | -11 | 6 | 7
O=C(N/N=C/c1ccccc1O)C1CC(=O)N(c2ccc(Cl)cc2)C1 (stereo not drawn) | 8 | i | . | 1 | 8 | 1 | 2 | 0
Cc1ccc(NC(=S)NCCc2ccccc2)nc1 | 14 | i | -14 | . | 1 | -10 | -1 | -2
O=C(CSc1n[nH]c(-c2cccnc2)n1)Nc1cccc(Cl)c1 | 19 | i | -7 | . | 10 | -2 | -1 | -1
COc1ccc(OC)c(NC(=O)CC(NC(C)=O)c2ccccc2)c1 (stereo not drawn) | -6 | i | 13 | -5 | -4 | -3 | -1 | 4
O=C(c1cc2ccccc2o1)N1CCOCC1 | . | i | -33 | -16 | . | -6 | 2 | 5
O=S(=O)(NCCc1csc(-c2cccnc2)n1)c1ccc(F)cc1 | 0 | i | 0 | -12 | 1 | 3 | 4 | 1
COc1ccc(CNC(=O)CCc2nnc3ccc(NCCCN4CCCC4=O)nn23)cc1 | -1 | i | -3 | -12 | -2 | . | -3 | -2
CCSCc1nnc(SCC(=O)Nc2nc(C)cs2)n1C | -2 | i | 7 | . | 13 | -8 | . | .
Cc1cc(C)c2nc(-c3ccncc3)cc(C(=O)N3CCN(Cc4ccccc4Cl)CC3)c2c1 | -17 | i | 27 | 6 | -12 | 2 | -8 | -6
O=C(OCC(=O)N1CCCC1)c1cc(Cl)ccc1Cl | -2 | i | 13 | -8 | 1 | -1 | 6 | 1
CCC(C)(C)NC(=O)C(c1ccc(OC)cc1)N(Cc1ccc(OC)cc1)C(=O)CCC(=O)Nc1cc(C)on1 (stereo not drawn) | 7 | i | 9 | 12 | 6 | 11 | 1 | 1
Cc1ccc(C(=O)NCCCNc2ccccc2[N+](=O)[O-])cc1 | -5 | i | 2 | . | 5 | 13 | 4 | -4
O=[N+]([O-])c1cc(-c2cnc3ccccc3n2)ccc1Oc1ccc(F)cc1 | -2 | i | -28 | . | -5 | 31 | 0 | -7
O=C(CSc1cn(CCNC(=O)c2cccs2)c2ccccc12)NCC1CCCO1 (stereo not drawn) | 5 | i | . | 2 | -10 | 1 | 3 | -9
COc1ccc(-n2c(SCC(=O)Nc3ccc(C(=O)O)cc3)nnc2-c2ccccc2)cc1OC | 11 | i | -1 | -7 | -5 | -7 | 5 | 8
COc1ccc(CNCc2ccc3ccccc3c2)c(OC)c1 | -1 | i | 23 | 3 | -2 | 7 | 3 | 0
O=C(COc1ccccc1)NCc1ccco1 | . | . | -99 | -13 | . | . | -2 | -1
O=C(CCC1COc2ccccc2O1)NC1CCCCC1 (stereo not drawn) | 12 | i | -36 | -9 | -9 | . | 4 | 0
COc1cc(OC)c(C(=S)N2CCCC2)cc1OC | 6 | i | 4 | -3 | 3 | 3 | 2 | 3
Cc1nc(S(=O)(=O)c2cccc(Cl)c2)nc2c1CCC2 | -10 | i | . | . | -8 | 23 | 3 | 8
CC1CN(C(=O)CCC(=O)NCCCc2ccccc2)c2ccccc2O1 (stereo not drawn) | 10 | i | -11 | -3 | -8 | -4 | 1 | 11
Nc1nnn(CC(=O)N/N=C/C=C/c2ccccc2)n1 | -6 | i | -12 | -4 | -8 | 2 | -1 | -1
N#Cc1ccc(S(=O)(=O)N2CCN(C(=O)C3CC(=O)N(c4ccc5c(c4)OCCO5)C3)CC2)cc1 (stereo not drawn) | . | . | 3 | 12 | . | 9 | -4 | 3
CC(C)(O)C#Cc1ccc(CNC[C@H]2O[C@@H](n3cnc4c(N)ncnc43)[C@H](O)[C@@H]2O)s1 | . | . | 20 | -15 | . | . | 0 | -1

Other records
SMILES | PABP FP inh | Rce1 inhib | Env fusion inh | UUG fidelity | eIF4H inh | CSC inhib | MT1-MMP act inh | MT1-MMP act inh RFP | others
O=C(c1cc(=O)[nH]c2ccccc12)N1CCN(c2cccc(C(F)(F)F)c2)CC1 | -4 | i | -4 | . | -3 | 16 | 2 | 1
COc1ccc(C2CC(=O)c3cnc(NC(=O)c4cc(OC)cc(OC)c4)nc3C2)cc1 (stereo not drawn) | -5 | i | . | -15 | -4 | 5 | 0 | -1
Cc1cnc(C(=O)OCC(=O)Nc2cccc(C)c2C)cn1 | . | . | -1 | -9 | . | -14 | 0 | 2
Cc1ccccc1OCCCC(=O)Nc1ccccc1C(F)(F)F | 0 | i | . | -14 | -9 | -10 | 1 | 1
Cc1cc(C)cc(NC(=O)C2C3C=CC4(O3)C2C(=O)N(CCCN(C)C)C4C(=O)NC2CCCC(C)C2C)c1 (stereo not drawn) | -2 | i | 4 | -18 | -4 | -10 | 0 | 5
O=C(CN(Cc1ccc(Br)cc1)S(=O)(=O)c1ccccc1)NCc1cccnc1 | -2 | i | 10 | -11 | 0 | -6 | -5 | -6
NC(=O)c1ccc(NC(=O)CCCN2C(=O)NC3(CCCC3)C2=O)cc1 | . | . | -3 | -16 | . | . | 2 | 5
CCC(CO)Oc1cc(NCc2ccc(C(=O)O)cc2)c2ncn(C(C)C)c2c1 (stereo not drawn) | . | . | 4 | -8 | . | -7 | 4 | 6
CCOC(=O)c1c(S(=O)(=O)Nc2ccccn2)c(C)n(C)c1C | 4 | i | 0 | 14 | -5 | -14 | 0 | 5
COc1ccc(-c2noc(CN(C(=O)c3c(-c4ccccc4Cl)noc3C)C(C)C)n2)cc1 | 8 | i | . | -5 | 1 | 6 | -5 | -6
O=C(NN1CCOCC1)c1cc(-c2ccc(Br)cc2)nc2ccccc12 | -3 | i | . | -11 | 3 | -10 | -2 | -4
COCC1CCN(Cc2cn[nH]c2-c2ccc(OC)c(F)c2)C1 (stereo not drawn) | 4 | i | -20 | -13 | 3 | -12 | -1 | 3
CCC(=O)Nc1ccc(Br)cn1 | -3 | . | 12 | -12 | 0 | 3 | 5 | 6
CC(C)NC(=O)C1(C)CCN1Cc1cccc(Cl)c1 (stereo not drawn) | . | . | 3 | -13 | . | . | 9 | -5
CCc1ccccc1NC(=O)CCCN1C(=O)c2cccnc2C1=O | 4 | i | -1 | -7 | -1 | -13 | 4 | 4
CCCCn1c(N)c(N(CCOC)C(=O)c2cccc(S(=O)(=O)N(C)c3ccccc3)c2)c(=O)[nH]c1=O | . | i | 6 | -8 | . | -9 | -6 | 1
CCOc1ccc2c(c1)nc(C)n2C | 6 | . | 10 | -10 | 14 | -7 | 2 | 3
OC1(c2cccc(C(F)(F)F)c2)CCN(Cc2nnnn2Cc2ccccc2)CC1 | 1 | i | -9 | . | 2 | -12 | -6 | -2
COc1cc(C(=O)OCCN2CCOCC2)ccc1O | 0 | i | . | -1 | 1 | -12 | 8 | 2
O=C(CCNC(=O)c1ccc(Br)cc1)NNC(=O)c1ccccc1O | . | i | -3 | . | . | 46 | 8 | 2
CC1CCN(C(=O)CCc2nc3cc(S(=O)(=O)N(C)C)ccc3n2C)CC1 | -6 | i | 24 | -4 | 1 | -6 | -4 | -1
COCC1=C(C(=O)OC)C(c2ccco2)n2ncnc2N1 (stereo not drawn) | 9 | i | 5 | 3 | 3 | -1 | 6 | 8
CC(OC(=O)c1cccs1)C(=O)NCCc1ccccc1 (stereo not drawn) | 3 | i | 7 | -13 | -1 | -7 | -1 | -3
